INS promoter inh: TRM-6 insulin promoter activity inhibition; TRM-6 cells (human fetal islet line), insulin promoter-eGFP reporter, imaging; reporter expression induced with tamoxifen; inhibition, % at 2 µM; 0.9% of 130,000 active;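 active = inhibition above the mean plus 3 SD, with well images judged a real hit on visual review, cut at about 60% in these data, passing the limit was not always enough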
HSV replic up: HSV replication enhancement. HSV replication augmentation in cells, fold increase. maximum fold increase. 0.005% of 220,000 active;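 active = peak rise of 1.5-fold or more in the series; tested in PC3 cells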;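 also: first round at 10 µM; read as green reporter fluorescence; hits show the peak of a series up to 25 µM; 1 = signal of infected wells without compound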
GALR2 agonist: activates the human galanin receptor 2; O43603; GALR2-expressing cells, agonist activation read-out; activation, %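 (tested at 5 µM)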; 0.48% of 140,000 active;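 active = above mean plus 3 SD of all compounds, about 5% in these data, not always enough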;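 also: 0% = vehicle buffer wells and 100% = reference agonist at full effect; tested in CHO reporter cells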
RGS16-Gao HTS: regulators of human RGS16-Galphao interaction; O15492+P09471; bead-based flow cytometry RGS16-Galphao binding, fluorescence; actives lie on both sides; binding response (% of control), % at 10 µM; 0.38% of 220,000 active;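 active = below 25% or above 175%, edge rows of some plates excepted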;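 also: Galphao activated by GDP with aluminum fluoride before binding; 100% = wells without compound and 0% = beads without RGS; some results beyond the cut were filed as inactive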
PKD1 inh: blocks activity of human protein kinase D1; Q15139; PKD1 kinase fluorescence polarization assay; inhibition, %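 (about 10 µM by stock and volumes)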; 0.056% of 200,000 active; AID 797;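 active = inhibition of 50% or more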;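 also: controls were vehicle for no effect and a reference inhibitor for full effect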
Target sequence (Q15139 whole entry, looked up): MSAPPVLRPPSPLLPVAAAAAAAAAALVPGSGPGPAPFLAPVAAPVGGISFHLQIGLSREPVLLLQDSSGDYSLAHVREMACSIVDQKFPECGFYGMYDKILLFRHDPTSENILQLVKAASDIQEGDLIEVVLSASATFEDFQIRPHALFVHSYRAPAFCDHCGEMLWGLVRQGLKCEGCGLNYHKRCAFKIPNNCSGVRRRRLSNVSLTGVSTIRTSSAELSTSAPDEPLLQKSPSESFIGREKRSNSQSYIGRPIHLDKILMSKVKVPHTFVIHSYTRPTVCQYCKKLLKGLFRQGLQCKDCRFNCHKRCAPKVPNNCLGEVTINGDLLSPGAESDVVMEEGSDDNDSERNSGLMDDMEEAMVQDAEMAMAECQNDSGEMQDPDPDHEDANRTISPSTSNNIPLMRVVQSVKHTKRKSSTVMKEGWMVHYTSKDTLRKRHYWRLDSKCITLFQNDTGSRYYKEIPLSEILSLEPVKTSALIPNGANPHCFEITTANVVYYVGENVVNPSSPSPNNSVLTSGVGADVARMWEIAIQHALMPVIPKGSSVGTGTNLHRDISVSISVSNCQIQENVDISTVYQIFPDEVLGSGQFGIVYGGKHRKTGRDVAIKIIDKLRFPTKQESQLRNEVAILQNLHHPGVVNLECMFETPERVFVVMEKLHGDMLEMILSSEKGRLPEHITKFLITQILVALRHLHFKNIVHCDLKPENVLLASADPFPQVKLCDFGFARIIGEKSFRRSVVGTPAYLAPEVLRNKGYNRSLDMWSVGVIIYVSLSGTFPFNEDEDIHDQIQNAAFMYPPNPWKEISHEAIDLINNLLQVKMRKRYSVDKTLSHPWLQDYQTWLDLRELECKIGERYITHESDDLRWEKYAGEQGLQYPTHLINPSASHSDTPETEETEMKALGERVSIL
INS promoter inh cell count: recorded beside INS promoter inh, whose call it bears; normalized cell count, %; measured here: cell count, toxicity; reference of the scale not given here;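 cells exposed to compound for 48 h; stained nuclei by imaging scaled within each plate; lower means fewer cells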
HSV replic up primary fold: recorded beside HSV replic up, whose call it bears; fold increase; compound at 10 µM; measured here: primary screen fold increase 10 uM; tested in PC3 cells;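 GFP signal in the first replicate; 1 = infected wells without compound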
Active calls of the source: *; i = inactive; / = not tested or not shown.

SMILES	INS promoter inh	INS promoter inh cell count	HSV replic up	HSV replic up primary fold	GALR2 agonist	RGS16-Gao HTS	PKD1 inh
CCc1ccc2[nH]c(=O)c(C(c3nnnn3CC3CCCO3)N3CCN4CCCC4C3)cc2c1 (stereo unspecified)	-37	71	i	1.2	-0.2	97	-12
O=C(NCc1ccc2c(c1)OCO2)c1ccc(S(=O)(=O)N2CCCCC2)cc1	32	143	i	0.84	-0.4	107	-11
Cc1ccc(C(=O)C(OC(=O)CN2C(=O)c3ccccc3C2=O)c2ccccc2)cc1 (stereo unspecified)	-6	127	i	0.87	-2.3	98	-8
O=C(Oc1ccccc1)c1cc2ccccc2oc1=O	-67	109	i	0.93	/	126	1
COc1ccc(N2C(=O)C3CCCN3C2c2cc(OC)c(OC)cc2OC)cc1 (stereo unspecified)	/	/	i	1.1	-1.0	98	0
Cc1nn2c(=S)[nH]nc2[nH]c1=O	/	/	i	0.92	/	103	-1
CC(C)Cn1c(SCC(=O)Nc2cccc(S(N)(=O)=O)c2)nc2ccccc2c1=O	/	/	i	0.96	/	105	-3
Cc1cc(C)n(-c2nc3c(c(=O)[nH]c(=O)n3C)n2CC(O)COc2ccccc2)n1 (stereo unspecified)	-82	127	i	0.88	-0.2	105	-11
CCC(=O)Nc1c(-c2ccc(OC)cc2)c(=O)c2ccccc2n1C	36	35	i	0.97	0.8	94	-11
Cc1[nH]c2ccccc2c1SCC(=O)N1CCCc2ccccc21	/	/	i	0.76	-2.4	103	-9
N#Cc1cnc(Nc2nc3ccccc3o2)nc1-c1ccccc1	16	87	i	0.92	0.3	94	6
Cn1cccc1CC(=O)NNC(=O)Nc1cccc(Cl)c1	40	126	i	0.99	0.1	101	-1
Cc1ccnc(NC(=O)c2ccc(Cl)c(NC(=O)C(C)Oc3ccccc3)c2)c1 (stereo unspecified)	/	/	i	0.94	/	104	-4
O=C(C1=C[C@@H]2[C@H]3C(=O)N(c4cccc(Cl)c4)C(=O)[C@H]3[C@@H](C(=O)c3ccc(Cl)cc3)N2C=C1)c1ccccc1	-19	130	i	1.2	1.0	97	-11
O=C(c1cccc(S(=O)(=O)Nc2ccccc2F)c1)N1CCN(c2ccccc2F)CC1	/	/	i	0.95	/	100	-3
COc1ccccc1CCC(=O)Nc1ccc(C)cc1Cl	19	98	i	1.1	/	106	6
S=C(NCCc1ccccc1)NCc1ccccc1Cl	-6	127	i	0.96	-1.8	97	-2
CCC(=O)NC(=S)Nc1ccc(NC(=O)COc2ccc([N+](=O)[O-])cc2)cc1	/	/	i	1.1	/	110	3
COc1ccccc1N1CCN(C(CNC(=O)c2ccco2)c2cccnc2)CC1 (stereo unspecified)	/	/	i	0.98	-2.4	97	-11
COc1ccc(CCNC(=O)COC(=O)c2cnc(C)cn2)cc1	11	99	i	1	6.7	80	-3
CCCOc1ccccc1C1C(C(=O)OC)=CN(C(C)C)C=C1C(=O)OC	36	77	i	1	29*	107	-19
Cc1nc(C)n(C(=O)N(c2ccccc2)c2ccccc2)n1	/	/	i	0.99	-2.2	107	-3
Cc1cc(NC(=O)CCC(=O)N(c2cccnc2)C(C(=O)NC2CCCC2)c2ccccc2)no1 (stereo unspecified)	4	93	i	0.95	-0.8	102	-2
Cc1ccccc1CS(=O)(=O)CCC(=O)O	/	/	i	1.1	/	101	4
O=C(NCCCc1ccccc1)c1ccccc1O	32	104	i	0.8	-0.1	73	2
COc1ccc([N+](=O)[O-])cc1N(CC(=O)NCCCOC(C)C)S(C)(=O)=O	36	151	i	0.91	/	101	-1
C/C(Cn1nc([N+](=O)[O-])cc1C)=N\NC(=O)COc1c(Cl)cc(Cl)cc1Cl	/	/	i	0.93	0.0	112	0
O=C(O)c1ccc(-n2ccnc2)c([N+](=O)[O-])c1	/	/	i	1.2	0.4	112	-5
C/C(=N\NC(=O)C1CC1)c1ccc(Cl)c(Cl)c1	-5	190	i	1	-2.2	103	-4
O=c1c(Cl)c(Cl)cnn1Cc1ccc(F)cc1	/	/	i	0.62	/	101	3
O=C(O)CC12CC3CC(C1)CC(n1ncc(N4CCC5(CC4)OCCO5)c(Cl)c1=O)(C3)C2	/	/	i	0.95	/	105	/
CN(C)/N=C/c1ccc(Sc2ccccc2[N+](=O)[O-])o1	-67	85	i	0.97	/	102	7
CC(Oc1ccc(Cl)cc1Cl)C(=O)NCCC1=CCCCC1 (stereo unspecified)	-35	120	i	1	-1.6	101	-4
CC(=O)Oc1c(C)cc(Cl)cc1C(=O)Nc1ccc([N+](=O)[O-])cc1Cl	33	65	i	0.72	-0.7	113	-2
O=C(NCCCN1CCCC1=O)c1cncc(Br)c1	37	93	i	0.79	0.7	104	-3
Cc1cccc(CN2CCN(c3ccccn3)CC2)c1	19	75	i	0.75	0.2	/	2
COCCOc1ccc(C(F)(F)F)cc1NC(=O)c1ccc(C)cc1	/	/	i	1	-0.7	107	-1
Cc1nc(NS(=O)(=O)c2ccccc2)sc1C(C)(C)C	-15	51	i	1	-1.3	116	-3
O=C(N/N=C/c1ccccn1)c1ccc([N+](=O)[O-])cc1	13	28	i	0.95	/	99	-3
NC(=O)COc1ccc(Cc2ncc(C(F)(F)F)cc2Cl)cc1	30	91	i	0.71	/	100	3

Compound profiles, as listed above. Values in the order: INS promoter inh | INS promoter inh cell count | HSV replic up | HSV replic up primary fold | GALR2 agonist | RGS16-Gao HTS | PKD1 inh
Listed for O=C(NCCCc1ccccc1)c1ccccc1O → 32 | 104 | i | 0.8 | -0.1 | 73 | 2
Listed for O=C(N/N=C/c1ccccn1)c1ccc([N+](=O)[O-])cc1 → 13 | 28 | i | 0.95 | / | 99 | -3
Listed for Cc1nc(NS(=O)(=O)c2ccccc2)sc1C(C)(C)C → -15 | 51 | i | 1 | -1.3 | 116 | -3
Listed for Cc1nc(C)n(C(=O)N(c2ccccc2)c2ccccc2)n1 → / | / | i | 0.99 | -2.2 | 107 | -3
Listed for Cc1ccccc1CS(=O)(=O)CCC(=O)O → / | / | i | 1.1 | / | 101 | 4

(further entries)
SMILES	INS promoter inh	INS promoter inh cell count	HSV replic up	HSV replic up primary fold	GALR2 agonist	RGS16-Gao HTS	PKD1 inh
O=S(=O)(NCC(c1cccnc1)N1CCN(c2ccc(F)cc2)CC1)c1ccccc1 (stereo unspecified)	-44	118	i	0.87	-1.9	/	-18
COCCCNC(=S)N/N=C/c1ccc(OC)cc1	/	/	i	0.98	/	94	/
COc1ccc(CCNS(=O)(=O)c2cc(C(=O)O)c(Cl)cc2Cl)cc1	/	/	i	0.9	/	106	8
COc1cccc(-c2ccc(SCC(=O)N3CCc4ccccc43)nn2)c1	/	/	i	1.2	-0.9	98	-5
O=c1[nH]c2ccccc2n1Cc1ccc(Cl)cc1	-22	142	i	0.93	-1.0	107	3
CC1CCCC(NCC(=O)Nc2ccc(C(N)=O)cc2)C1C (stereo unspecified)	-55	131	i	0.88	/	105	3
NNC(=O)c1ccc(CN2CCCCC2)o1	/	/	i	0.9	/	100	-6
CC(=O)O[C@@H]1C[C@H]2C(C)(C)C(=O)C=C[C@]2(C)[C@H]2CC[C@@]3(C)[C@H](c4ccoc4)OC(=O)[C@H]4O[C@]43[C@@]21C	25	114	i	0.46	1.1	111	7
O=C(c1ccc(N2CCCCS2(=O)=O)cc1)N1CCN(c2ccc(N3CCOCC3)nn2)CC1	-10	86	/	/	-0.9	105	3
CCCCN(CC)Cc1c(C)[nH]c2ccccc2c1=O	9	95	/	/	-1.8	101	-12
Cc1cc([N+](=O)[O-])nn1CC(=O)Nc1sc2c(c1C(N)=O)CCCC2	/	/	i	0.95	/	106	0
S=C(Nc1ccc(Br)cc1Cl)NC1CCN(Cc2ccccc2)CC1	/	/	i	0.72	/	102	-1
CCOC(=O)N1CCc2c(sc(NC(=O)c3ccc(Cl)s3)c2C(N)=O)C1	/	/	i	0.77	-1.7	102	-3
CCN(CC)C(=O)C[n+]1ccc(C(N)=O)cc1	50	116	i	1	/	100	7
Cc1ccc(Cn2nc(C)c(NC(=O)c3nn(C)cc3Cl)c2C)cc1	38	118	i	0.92	-1.4	103	-1
CCOC(=O)C1=C(C)Nc2nnnn2C1c1cccc(OC)c1OC (stereo unspecified)	22	125	i	0.87	0.9	110	2
CCOC(=O)N1CCN(C(=O)C2CCCN(S(=O)(=O)c3cccnc3)C2)CC1 (stereo unspecified)	/	/	i	1.1	-1.7	107	4
COc1ccc(-c2n[nH]c(C)c2-c2cnn(-c3ccccc3)c2)c(O)c1C	-7	95	i	0.77	1.2	102	-2
CCc1ccc(/C=N/N2CCN(c3ccccn3)CC2)cc1	/	/	i	0.93	/	100	/
COC(=O)C(C(=O)Nc1ncccn1)C1CCCCCC1 (stereo unspecified)	-25	110	i	0.94	-2.1	99	-6

Quoted from the listing:
In PKD1 inh, COc1cccc(-c2ccc(SCC(=O)N3CCc4ccccc43)nn2)c1 has -5
In RGS16-Gao HTS, CC1CCCC(NCC(=O)Nc2ccc(C(N)=O)cc2)C1C (stereo unspecified) has 105

Next part
SMILES	INS promoter inh	INS promoter inh cell count	HSV replic up	HSV replic up primary fold	GALR2 agonist	RGS16-Gao HTS	PKD1 inh
O=C(NCCc1c[nH]c2ccccc12)C(=O)NCC1OCCCN1S(=O)(=O)c1ccccc1 (stereo unspecified)	-62	185	i	0.79	-1.6	112	-3
CC(C)(C)c1ccc(C(=O)NNC(=O)c2cccc(Br)c2)cc1	60	98	i	0.71	0.8	107	-3
CC(=O)Nc1ccc(/C=C(\C#N)C(=O)NCc2ccccc2)cc1	30	154	i	0.99	-0.6	94	-2
CCOC(=O)Cc1nc2ccccc2n(CC#N)c1=O	14	72	i	0.88	/	103	-4
COc1ccc(/C=N/NC(=O)c2cccc([N+](=O)[O-])c2)cc1OC(=O)c1ccccc1	14	94	i	0.54	-3.4	107	-9
O=C(NCCCCNC(=O)c1ccccn1)c1ccccn1	/	/	i	1	/	110	1
O=C(CSc1ccsc1[N+](=O)[O-])N1CCCCC1	/	/	i	0.98	/	102	1
Cc1ccc(Nc2c3c(nc4ncnn24)CC(C)CC3)cc1 (stereo unspecified)	9	153	i	0.86	-1.0	99	-5
CC(C)CC1(C(=O)NCc2ccccn2)C=CCN1C(=O)c1ccccc1 (stereo unspecified)	-29	127	i	0.88	-1.4	104	2
CS(=O)(=O)N1CCC(C(=O)NCCN2CCN(Cc3ccccc3)CC2)CC1	/	/	i	1.3	-1.6	107	0
CCOc1ccc(CN2CCN(CC(O)Cn3c4ccccc4c4ccccc43)CC2)cc1 (stereo unspecified)	-122	100	i	0.52	1.2	104	-2
COc1ccccc1Nc1ncccc1C(=O)NCc1ccccc1	-50	39	i	0.9	-0.2	98	-1
Cc1cc(C)n(-c2nncn2NC(=O)c2ccc(Cl)cc2O)n1	/	/	i	0.93	-1.5	101	-9
Fc1ccc(Oc2ncccn2)c(F)c1	-13	89	i	0.99	0.2	146	-8
Nc1nonc1C(=O)OCC(=O)N1CCCCC1	15	101	i	1	-1.2	93	-11
COc1cccc(C2CC(c3cccs3)=NN2C(=O)CSC2=NN3CCCC(=O)N=C3S2)c1OC (stereo unspecified)	/	/	i	1	-2.1	101	12
O=C(Nc1ccc(CN2CCCCC2)cc1)c1cccc(F)c1	/	/	i	0.93	/	100	-1
O=C(OCc1cccc2ccccc12)c1ccc2c(=O)[nH]c(CN3CCOCC3)nc2c1	/	/	i	0.91	-1.3	-114*	9
COc1ccc(CC(=O)Nc2ccc3c(c2)CCC3)cc1S(=O)(=O)N1CCOCC1	-52	120	i	0.78	-0.4	98	13
CN(Cc1ccccc1)CC(O)COc1ccc(CNCc2cccnc2)cc1 (stereo unspecified)	/	/	i	0.96	/	99	1
Cn1nc(C(=O)NC2=NCCS2)ccc1=O	-17	115	i	0.93	-3.4	98	-7
CC1(C)Cc2c(sc3c2C(=O)N(c2ccccc2)C2=NCCN23)CS1	3	91	i	0.86	-0.8	101	-4
COc1ccc(CNC(=O)/C=C/c2ccco2)cc1OC	71*	19*	i	1.1	/	99	2
O=C(/C=C/c1ccccc1)NNc1ccc(Cl)cc1	/	/	i	0.93	/	96	-1
O=C(Nc1ccc(F)cc1)c1ccc(S(=O)(=O)N2CCOCC2)o1	/	/	i	0.91	/	136	/
CCCCC(=O)Nc1cccc(C(=O)Nc2ccccc2C(=O)O)c1	32	168	i	1.1	/	101	-6
COc1ccc(OC(=O)c2ccc(Cl)cc2)c(C(C)=O)c1	/	/	i	1.1	/	106	-4
CCC(CNc1cc(OC)cc2cccnc12)NC1CCCCC1 (stereo unspecified)	/	/	i	1	/	99	/
C/C(=N\Nc1nc(C)cc(-c2ccccc2)n1)c1ccc(C)o1	/	/	i	0.51	0.3	103	-6
CCCCC(=O)Nc1cccc(-c2nc3ncccc3o2)c1	/	/	i	0.71	-2.5	100	5
